Screening data: PubChem BioAssay, several laboratories
Yeast UUG start = alters start codon recognition fidelity in yeast; AID 602363; 350,000 compounds, 0.13% hits; activity score, % at 18.7 µM; S. cerevisiae UUG-firefly luciferase reporter, luminescence/redox ratio;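 active = replicate mean at a twofold rise or more, about +100% in these data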;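 also: firefly luciferase made from a UUG start codon reports start codon fidelity; reporter light over untreated wells divided by growth signal over untreated wells; some hits fall short of that in this replicate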
Rce1 inh = inhibitors of yeast Ras-converting enzyme; yeast membranes, quenched prenylated peptide cleavage fluorescence; calls only; 290,000 compounds, 0.27% hits; AID 2563;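 active = fall in fluorescence gain of 50% or more versus controls, with final raw signal at or below 3038400; inconclusive = same 50% fall but final raw signal above 3038400; inactive = fall in fluorescence gain under 50%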;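 also: plate controls were neutral control wells for no effect and wells lacking membranes for full effect; tested at 10 µM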
Target sequence (Q03530 whole entry, looked up): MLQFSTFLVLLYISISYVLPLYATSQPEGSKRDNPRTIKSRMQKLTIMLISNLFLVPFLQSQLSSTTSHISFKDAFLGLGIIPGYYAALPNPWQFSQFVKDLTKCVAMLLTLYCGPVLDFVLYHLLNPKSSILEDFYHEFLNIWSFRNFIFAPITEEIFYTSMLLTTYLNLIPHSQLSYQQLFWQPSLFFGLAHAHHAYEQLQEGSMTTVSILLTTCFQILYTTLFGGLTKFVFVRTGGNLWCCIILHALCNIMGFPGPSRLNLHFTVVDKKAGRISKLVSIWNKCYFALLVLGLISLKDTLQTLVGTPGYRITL
MT1-MMP act inh = blocks activation of human MT1-MMP. P50281. 360,000 compounds, 0.061% hits. GFP/RFP ratio change, % at 20 µM. HT1080 RFP-PRO-GFP cells, GFP/RFP ratio fluorescence, overnight; percent of plate control window, DMSO zero. AID 651647;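 active = GFP/RFP ratio change of at least 30% with cell ATP level not reduced by more than half and red fluorescence within 50% of control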; also: strong numbers were not always called active
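Material – HT1080 RFP-PRO-GFP cells · Control set – DMSO wells and RFP-L50D-GFP cells · Incubation – overnight cell settling, then overnight compound exposure, 37 °C, 5% CO2 · Compound dosing – single-point 20 µM compound, 1% DMSO · Read-out – GFP/RFP fluorescence ratio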
eIF4H FP inh = inhibitors of RNA binding by human eIF4H | Q15056 | 290,000 compounds, 0.94% hits | inhibition, % at 35 µM | eIF4H fluorescence polarization binding assay;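 active = 50% or more with normal probe brightness, or confirmed in later tests; inconclusive = above 50% with abnormal brightness, or retests that disagree; inactive = below 50% or failed in later tests; about a fifth of its hits are not listed in these tables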;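 also: calls also rest on retests at 20 µM and on dose response follow-up; 0% = protein and probe with vehicle and 100% = probe without protein; strong numbers were not always called active; many hits fall short of the cut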
HIV Env fusion = HIV envelope-mediated fusion inhibition; inhibition, % at 12.3 µM; AID 651610; HeLa-JRFL Env/CEM21 cell fusion, luciferase; 360,000 compounds, 1.1% hits;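 active = mean replicate inhibition score of at least 50 and every replicate individually at or above 50; inconclusive = only one of the two criteria met; inactive = mean below 50 and not all replicates reaching 50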;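 also: 0% = plate neutral controls and 100% = maraviroc near 300 nM; one replicate is shown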
PABP polyA inh = PABP-poly(A) binding inhibition | P11940 | PABP-poly(A) RNA binding, fluorescence polarization | inhibition, % at 35 µM | 290,000 compounds, 1% hits;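 active = 50% or more with normal probe brightness, or confirmed in later tests; inconclusive = above 50% with abnormal brightness, or retests that disagree; inactive = below 50% or failed in later tests; about a fifth of its hits are not listed in these tables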;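 also: calls also rest on retests at 20 µM and on dose response follow-up; controls were probe without protein and protein plus probe with vehicle; some compounds called inactive have numbers as strong as hits; many hits fall short of the cut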
Target sequence (P11940 whole entry, looked up): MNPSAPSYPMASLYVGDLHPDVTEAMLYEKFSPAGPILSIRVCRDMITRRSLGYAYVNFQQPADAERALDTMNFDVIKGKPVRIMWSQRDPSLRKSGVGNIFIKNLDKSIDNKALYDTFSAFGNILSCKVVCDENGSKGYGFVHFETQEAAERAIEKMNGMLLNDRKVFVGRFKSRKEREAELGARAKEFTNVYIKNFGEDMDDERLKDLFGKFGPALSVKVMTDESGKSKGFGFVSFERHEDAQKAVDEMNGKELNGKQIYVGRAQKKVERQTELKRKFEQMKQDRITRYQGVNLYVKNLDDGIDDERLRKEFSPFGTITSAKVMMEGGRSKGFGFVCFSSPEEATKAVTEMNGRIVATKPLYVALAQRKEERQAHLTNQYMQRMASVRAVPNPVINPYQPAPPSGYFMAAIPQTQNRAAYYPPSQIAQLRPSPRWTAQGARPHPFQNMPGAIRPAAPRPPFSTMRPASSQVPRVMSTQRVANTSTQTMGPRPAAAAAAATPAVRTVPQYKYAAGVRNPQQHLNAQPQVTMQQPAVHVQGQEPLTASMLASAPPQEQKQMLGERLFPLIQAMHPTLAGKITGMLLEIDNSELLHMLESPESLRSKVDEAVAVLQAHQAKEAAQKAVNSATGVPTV
CSC inhib = cancer stem cell inhibition. cancer stem cell-like cells viability, luminescence. AID 2717. 300,000 compounds, 1.1% hits. inhibition, % at 7.5 µM;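 active = mean at 75% or more and at least half the replicates too; inconclusive = mean and replicates disagree; tested in HMLE shEcad cells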;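 also: 0% = median of negative and 100% = median of positive control wells; the first replicate is given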
eIF4H FP inh retest = second read-out of eIF4H FP inh, no call of its own (marks repeat the call); inhibition, %; compound at 20 µM; confirmation average;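 mean of two retest wells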
PABP polyA inh retest = further read-out of PABP polyA inh, marked with its call; inhibition, %; compound at 20 µM; confirmation repeats;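 mean of two retest wells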
MT1-MMP act inh RFP = second read-out of MT1-MMP act inh, no call of its own (marks repeat the call); RFP signal change, %; measured here: RFP expression control read;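 0 = vehicle wells; hits needed this value within 50% of zero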
* = called active by the depositor; i = inactive; u = inconclusive; x = no result given. Only part of the results is shown. The share of hits here may be higher or lower than overall.

SMILES | Yeast UUG start | Rce1 inh | MT1-MMP act inh | MT1-MMP act inh RFP | eIF4H FP inh | HIV Env fusion | PABP polyA inh | CSC inhib | others
O=C(C1CCN(S(=O)(=O)c2ccc(Cl)cc2)CC1)N1CCCC1 | x | i | 0.2 | 2.1 | 3.2 | -4.1 | 9.3 | -1.7
COc1cccc(OCCNc2cc(Cl)ccc2[N+](=O)[O-])c1 | -26.7 | i | -4.7 | 1.9 | 2.8 | x | -1.4 | 12.7
O=C(N/N=C/c1ccc(O)cc1)c1cccc(N/N=C/c2ccc(O)cc2)c1 | -16.6 | i | 2.1 | -1.7 | -4.5 | -23.0 | 6.7 | 8.9
O=C(Cn1cncn1)NCc1cccc2ccccc12 | -13.4 | i | -1.1 | 0.3 | -1.8 | -61.9 | 0.6 | 11.2
CN(C)C(CNC(=O)C1CCN(S(=O)(=O)c2ccccc2)CC1)c1ccccc1 (stereo not given) | 8.0 | i | 0.3 | 1.6 | -5.9 | 7.6 | -9.4 | -1.8
CC1CCCCN1C(=O)Cc1ccc(Cl)cc1 (stereo not given) | -22.5 | i | -5.2 | 1.3 | 7.4 | -55.0 | 18.6 | 17.5
COc1ccc(Br)cc1CNC(=O)CCC(=O)n1nc(C)c2ccccc21 | -12.7 | i | -7.2 | -4.4 | -7.7 | 9.7 | -10.4 | -2.8
COc1ccc(C)cc1NC(=O)CCNS(=O)(=O)c1ccc2c(c1)CC(C)N2C(C)=O (stereo not given) | 4.1 | i | 2.0 | 3.6 | -8.5 | 79.0* | -2.0 | -0.3
O=C1NCCc2c1[nH]c1c(Cl)ccc(Cl)c21 | -4.8 | i | -9.8 | -13.1 | 3.9 | x | 0.6 | x
CCCn1cc(S(=O)(=O)c2ccc(C)cc2)c(=O)c2cc(OC)c(OC)cc21 | -17.8 | i | -1.6 | 0.9 | 2.0 | 5.0 | 10.6 | -9.5
COc1ccc(-n2cc(CNCC3CC(=O)N(C4CC4)C3)c(-c3ccccc3Cl)n2)cc1 (stereo not given) | x | i | 1.6 | 0.8 | -2.8 | -15.2 | -1.1 | 2.2
Cc1cc(C)c(S(=O)(=O)Nc2c(C)n(C)n(-c3ccccc3)c2=O)cc1[N+](=O)[O-] | 3.8 | i | 0.1 | 1.5 | -4.0 | -7.1 | -3.7 | 4.2
C=CCn1c(COc2ccc3c(c2)CCCC3)nnc1SCC(=O)Nc1cccc(SC)c1 | -15.7 | i | 9.2 | -10.1 | 7.2 | 50.6 | -7.4 | -5.0
CCOC(=O)N1CCC(NC(=O)CCc2c(C)nc3c(c(C)nn3C(C)(C)C)c2C)CC1 | x | i | -13.6 | -20.5 | -3.6 | 34.9 | -8.7 | -8.2
O=C(CSc1nnc(-c2ccccc2)o1)NC1CCS(=O)(=O)C1 (stereo not given) | x | i | 6.0 | 11.1 | -6.8 | x | 7.2 | -4.5
O=C(NCc1ccco1)c1cccc(-c2cncc3nccn23)c1 | -9.9 | x | 0.4 | 2.1 | x | -17.5 | x | x
COc1ccccc1NC(=O)CCCc1c[nH]c2ccccc12 | 2.4 | i | 1.4 | 0.5 | -12.6 | -6.1 | 5.9 | x
Cc1ccc(C(=O)OCC(=O)NCC2CCCO2)c(C)c1 (stereo not given) | x | i | -0.5 | -0.7 | -3.9 | 12.7 | -5.7 | -10.1
COc1ccc(CCNC(=O)CCc2nc3ccccc3[nH]2)cc1OC | -4.8 | i | 2.6 | -5.0 | 8.5 | 3.2 | -14.2 | -7.0
CCCCN(CC)CCCNC(=O)c1cc2c(=O)n(CC)c3ccccc3c2s1 | 27.9 | i | 11.5 | 6.6 | 2.5 | -2.9 | 10.6 | 9.5
CCOc1ccc(Br)cc1S(=O)(=O)Nc1cccc(S(=O)(=O)N(C)C)c1 | x | i | 15.1 | 5.0 | 3.5 | x | 6.5 | 4.0
CC(C)(C)NS(=O)(=O)c1ccc(CCC(=O)Nc2ccc3c(c2)OCO3)cc1 | -1.5 | i | 26.8 | 0.8 | -2.5 | x | -1.3 | -11.7
COc1cc2[nH]c(=O)c(C(=O)NCc3ccc(C)cc3)c(O)c2cc1OC | -18.0 | x | 0.0 | 4.4 | x | -28.2 | x | x
O=C(O)c1cccc(S(=O)(=O)N(Cc2ccccc2)c2cccc(C(F)(F)F)c2)c1 | -17.3 | i | -6.3 | -3.7 | 11.7 | -2.6 | 6.1 | 6.5
COc1ccc(CNCc2cccc(OC)c2OC)cc1Br | x | i | 5.7 | -1.8 | -5.8 | 13.9 | -7.9 | 1.5
Cc1cc(NS(=O)(=O)c2ccc(C3CCCCC3)cc2)no1 | -14.5 | i | 1.5 | 3.8 | 6.2 | x | 8.6 | 6.1
O=[N+]([O-])c1ccc(Cl)c(/C=N/N2CCN(Cc3ccc(Cl)cc3)CC2)c1 | -0.9 | i | 2.5 | -1.0 | 0.8 | 12.6 | -8.0 | 34.4
CCCS(=O)(=O)NC(=O)C1(C)CCN(C(=O)c2cc(C(C)(C)C)nn2C)C1 (stereo not given) | -16.8 | x | 0.7 | 3.0 | x | 12.0 | x | x
CCOc1ccccc1NC(=O)C1CCN(S(C)(=O)=O)CC1 | -16.4 | x | 3.4 | -0.8 | 8.0 | -0.8 | 13.8 | -18.4
CC(C)CCOc1ccc(C(=O)NCC(c2cccs2)N2CCOCC2)cc1 (stereo not given) | x | i | -1.1 | -1.3 | x | 2.7 | x | 6.2
Cn1c(Cc2cccs2)nnc1SCC(=O)N1CCc2ccccc21 | -18.7 | i | 11.9 | 4.0 | -2.3 | -55.4 | -10.6 | -9.6
Cc1nn(Cc2cccc3ccccc23)c(C)c1NC(=O)c1cccnc1 | x | i | 1.8 | -1.4 | -1.7 | -0.2 | 54.2 | x | eIF4H FP inh retest=-6.7;PABP polyA inh retest=0.6
CCOc1ccc(C(C)NC(=O)CCC(=O)O)cc1 (stereo not given) | -2.3 | x | 0.6 | 7.9 | 3.1 | x | 8.2 | x
CC(=O)c1ccc(-c2nc3c4ccccc4ccn3c2C(C)=O)o1 | x | i | -1.7 | 0.9 | 0.0 | x | -2.8 | -4.5
COC(=O)c1cc(Br)cn1S(=O)(=O)c1ccccc1 | -17.7 | i | 2.3 | 4.0 | -1.9 | 12.5 | 6.1 | x
CCCOc1ccc(C(=O)NCC(c2cccs2)N(C)C)cc1 (stereo not given) | -5.2 | i | 1.5 | -0.1 | -9.4 | 20.8 | -14.7 | x
COc1cccc2cc(C(=O)N3CCN(c4ccccc4F)CC3)c(=O)oc12 | -7.1 | i | 8.6 | 1.4 | -4.4 | x | -3.3 | -13.9
CC(C)(C)c1ccc(-c2nnc(SCCC#N)n2C2CCCC2)cc1 | -8.1 | i | -13.4 | -15.5 | -2.7 | x | -14.7 | 17.7
O=C(c1cccc(S(=O)(=O)N2CCOCC2)c1)N1CCOCC1 | -12.4 | i | -0.5 | 2.7 | -8.0 | -13.5 | -0.2 | -11.7
O=C(Nc1cccc(Cl)c1)c1cncn1-c1ccc(F)cc1 | -24.0 | x | 2.0 | 3.1 | 0.0 | -2.5 | 6.8 | 4.2
C#CCN1C(=O)S/C(=C/C=C/c2ccc(N(C)C)cc2)C1=O | x | x | -0.2 | 65.7 | u | x | 5.0 | 31.3
COC(=O)c1cc2c(C)cc3ccc(C)cn3c-2c1C(=O)OC | -10.8 | i | -43.3 | 0.5 | u | x | u | -1.8
CCC1CCc2sc(C(=O)N3CCN(c4ccccn4)CC3)cc2C1 (stereo not given) | -2.7 | i | 1.0 | 4.3 | -11.0 | -5.8 | 0.9 | 5.6
CCCCn1c(N)c(N(Cc2ccccc2OC)C(=O)c2ccc([N+](=O)[O-])s2)c(=O)[nH]c1=O | x | i | -7.7 | 0.7 | x | -20.2 | x | x
Cc1ccccc1NC(=O)C1CCCN(S(=O)(=O)c2ccc3c(c2)C(C)(C)C(=O)N3C)C1 (stereo not given) | -6.3 | i | -3.5 | -3.6 | 1.4 | -30.1 | 2.0 | -8.4
CC(C(=O)NCCS(=O)(=O)c1ccc(Cl)cc1)S(=O)(=O)c1ccc(Cl)cc1 (stereo not given) | x | i | 9.0 | -0.2 | 4.4 | 28.5 | 7.0 | -13.7
O=C(C[n+]1ccsc1)c1ccccc1 | 8.0 | i | -0.4 | 2.8 | 2.8 | -0.5 | -0.3 | -5.5
COc1cccc(/C(O)=C/c2nc3ccc(C(=O)NCCc4cccc(C)c4)cc3[nH]c2=O)c1 | -9.4 | i | -23.1 | -5.7 | 9.1 | x | -4.4 | 15.7
CCCN1C(=O)C(NS(=O)(=O)c2ccc(N)cc2)(C(F)(F)F)C(C(=O)OC)=C1C (stereo not given) | -12.6 | i | -4.9 | -0.8 | 8.9 | x | -1.1 | -7.3
CSC1=C(C#N)C(c2ccc3c(c2)OCO3)C2=C(CCCC2=O)N1 (stereo not given) | -6.8 | i | -3.4 | 0.4 | 3.8 | 29.8 | 2.0 | -7.8
O=C(CSCc1cc(=O)n2nc(C3CC3)sc2n1)Nc1ccc(F)cc1 | -0.7 | i | 0.2 | 4.1 | -2.6 | -3.0 | 2.4 | 0.7
Cc1cc(C)n(CC(=O)N2CCCC(N3CCN(c4ccc(F)cc4)CC3)C2)n1 (stereo not given) | -16.0 | i | -2.1 | 0.6 | 9.9 | -7.8 | 0.5 | 6.6
COc1cccc(C(=O)NCCSc2ccc(C)cc2)c1 | x | i | -1.5 | -3.7 | -10.4 | -22.8 | 9.3 | -2.7
Cc1cc(C)n(CCN(C)c2nc3nonc3nc2N2CCCCC2)n1 | x | i | 1.2 | 1.2 | 2.2 | -4.4 | -5.4 | -6.0
CC(C)(C)NCc1ccc(OCc2cccs2)cc1 | -8.6 | i | -0.9 | -0.9 | -7.8 | 1.0 | -2.6 | 15.8
COc1ccc(/C=N/NC(=S)Nc2cc(C(F)(F)F)ccc2Cl)cc1 | -20.6 | i | 0.5 | -1.7 | -11.1 | -25.3 | 0.3 | -2.1
O=c1c2ccccc2nc(COc2ccccc2)n1/N=C/c1ccc(O)cc1O | x | i | -7.2 | -5.9 | -4.3 | 19.6 | -11.9 | 67.1
O=C(O)c1cc(S(=O)(=O)Nc2cccc(Oc3ccccc3)c2)ccc1Br | -35.7 | x | 0.7 | 2.9 | -6.1 | 8.4 | 4.3 | 3.4
CC(C)Cn1cnc2c1c(=O)n(CC(O)c1ccccc1)c(=O)n2CC(C)C (stereo not given) | -2.9 | i | 0.3 | -3.9 | -3.4 | -8.6 | -3.7 | 12.0
O=C(O)c1nccnc1C(=O)Nc1ccc(Oc2c(Cl)cccc2Cl)nc1 | -8.7 | i | 4.4 | 2.8 | -8.8 | -13.2 | -8.0 | -6.5

Among those listed so far, these have a furan ring, fused or not.
SMILES | Yeast UUG start | Rce1 inh | MT1-MMP act inh | MT1-MMP act inh RFP | eIF4H FP inh | HIV Env fusion | PABP polyA inh | CSC inhib | others
O=C(NCc1ccco1)c1cccc(-c2cncc3nccn23)c1 | -9.9 | x | 0.4 | 2.1 | x | -17.5 | x | x
CC(=O)c1ccc(-c2nc3c4ccccc4ccn3c2C(C)=O)o1 | x | i | -1.7 | 0.9 | 0.0 | x | -2.8 | -4.5
